TRPML1 agonist: activates the human TRPML1 channel. 410,000 compounds, 0.12% hits. Q9GZU1. TRPML1-expressing cells, Ca2+ dye fluorescence, FDSS; host cell line not named in the record; reference of the full effect not given here. activation, % (test concentration not listed); in the data active = activation above about 50%; inconclusive = about 30% to 50%; inactive = below about 30%; further: 0% is about no effect; the text of the record puts the active cut at 80%
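TRPML1-DL cells, Tet-induced overnight (~16 h, 37 degrees C), loaded 45-90 min at room temperature with Ca8 no-wash calcium dye plus quencher. FDSS fluorescence: 10 s baseline, compound pin-transfer, 110 s agonist read, then EC80 54-4 (4uM final) and 110 s antagonist read.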
D2 PAM: positive allosteric modulators of human D2 dopamine receptor; P14416; DiscoveRx D2 beta-arrestin cells, luminescence, 90 min; 100% = 57 uM dopamine signal; potentiation, % (no concentration beside the values); 360,000 compounds, 0.23% hits; active = potentiation of 50% or more; inconclusive = 30% to 50%; inactive = 30% or less;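 further: compound concentration not given in the record; tested on top of an EC20 dose of dopamine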
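D2 cells co-treated with compound plus 50 nM dopamine (EC20) for 90 min at 37 deg C to detect potentiation. Beta-arrestin recruitment was read as enzyme-fragment luminescence after 1 h at ambient temperature. Full response was set by 57 uM dopamine.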
CtBP-E1A blk: blocks the CtBP interaction with E1A; activity change, % (concentration not given with the values); 340,000 compounds, 0.49% hits; AlphaScreen GST-E1A/His-CtBP binding, 1536-well; active compounds read low; control for the full effect not named in the record; in the data active means activity change below about -65%; inconclusive means about -30% to -65%; inactive means above about -30%; further: on the % scale 0 is the no-effect control and ±100 the full control effect
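AlphaScreen with 125 nM GST-E1A and 125 nM His-CtBP (5X stocks) in Tris pH 8.0, 300 mM NaCl, BSA, Tween 20, TCEP. Compounds preincubated 2 h at 37 deg C, then glutathione donor/nickel acceptor beads added for 1 h at 37 deg C in dark.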
Six1-Eya2 inh: Six1/Eya2 interaction inhibition; activity change, % (concentration not given with the values); AlphaScreen GST-Six1/His-Eya2 binding, biochemical; active compounds read low; control for the full effect not named in the record; Q15475+O00167; 360,000 compounds, 0.56% hits; in the data active = activity change below about -65%; inconclusive = about -30% to -65%; inactive = above about -30%; further: on the % scale 0 is the no-effect control and ±100 the full control effect
Target sequence (O00167 whole entry, looked up): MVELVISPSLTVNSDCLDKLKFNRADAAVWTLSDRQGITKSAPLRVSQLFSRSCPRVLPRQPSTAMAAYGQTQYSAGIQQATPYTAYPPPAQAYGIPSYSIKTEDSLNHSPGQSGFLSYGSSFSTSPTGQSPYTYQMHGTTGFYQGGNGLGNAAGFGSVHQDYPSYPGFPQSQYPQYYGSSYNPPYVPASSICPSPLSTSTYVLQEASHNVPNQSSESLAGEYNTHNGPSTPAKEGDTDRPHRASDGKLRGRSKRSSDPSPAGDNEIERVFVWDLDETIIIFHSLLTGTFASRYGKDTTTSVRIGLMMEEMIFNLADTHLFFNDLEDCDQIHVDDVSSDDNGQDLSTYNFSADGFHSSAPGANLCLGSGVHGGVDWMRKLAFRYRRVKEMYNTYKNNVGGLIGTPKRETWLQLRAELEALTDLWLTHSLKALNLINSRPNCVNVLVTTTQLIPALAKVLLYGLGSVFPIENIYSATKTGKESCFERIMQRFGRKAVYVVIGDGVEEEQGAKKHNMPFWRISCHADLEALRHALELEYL
Target sequence (Q15475 whole entry, looked up): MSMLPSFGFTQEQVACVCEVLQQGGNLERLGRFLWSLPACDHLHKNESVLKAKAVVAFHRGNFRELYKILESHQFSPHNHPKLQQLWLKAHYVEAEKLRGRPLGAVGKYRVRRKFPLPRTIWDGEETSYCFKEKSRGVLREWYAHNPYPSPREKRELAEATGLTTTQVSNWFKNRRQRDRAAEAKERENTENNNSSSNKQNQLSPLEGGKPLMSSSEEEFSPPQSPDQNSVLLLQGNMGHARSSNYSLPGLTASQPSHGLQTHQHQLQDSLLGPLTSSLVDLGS
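GST-Six1 + His-Eya2 (5X stock: 250/500 nM); Tris pH 8.0, 300 mM NaCl, 0.05% BSA, 0.02% Tween 20; GSH donor/Ni acceptor beads; 1 h 37 °C dark; AlphaScreen readout.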
PINK1 expr mod: changes PINK1 expression | PINK1 immunofluorescence, high-content cytometry, 24 h | Potency, µM (series often up to 76.6 µM), without a hit: top-dose activation (PINK1 increase), usual class: activators | 410,000 compounds, 0.2% hits | AID 624263; active = well fitted activation curve with a large enough effect; inconclusive = small, poorly fitted or top-dose-only effect; inactive = flat fitted curve, though single readings scatter; cell line not stated here;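 further: potency means the concentration at half of the fitted maximal effect; % of control where 0% means no effect; nearly all actives have a fitted effect of over 65% in size; a mitochondrial uncoupler was the plate control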
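PINK1 protein, normally rapidly degraded, was detected by immunofluorescence after 24 hour compound treatment of a stable cell line. Titration data (5 concentrations) came from laser-scanning cytometry, with CCCP-treated wells as controls.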
D2 ag: activates the human D2 dopamine receptor; P14416; DiscoveRx PathHunter D2 beta-arrestin, luminescence, 90 min; 100% = 57 uM dopamine signal; activation, % (no concentration beside the values); 360,000 compounds, 0.084% hits; in the data active = activation above about 40%; inconclusive = about 15% to 40%; inactive = below about 15%; further: compound concentration not given in the record; the text of the record calls up to 30% inactive
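DiscoveRx PathHunter D2 beta-arrestin cells (2,100/well) attached overnight, then compound-stimulated 90 min at 37 C in HBSS/10 mM HEPES/0.1% Tween-20 buffer; beta-galactosidase complementation read by luminescence after 1 h at ambient temperature. Dopamine 57 uM final (EC100) as control.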
An asterisk follows results filed as active; ? = inconclusive; · = not tested or not shown; & = joins results of further samples; [ ] = dose if it differs, or a comment.

SMILES	TRPML1 agonist	D2 PAM	CtBP-E1A blk	Six1-Eya2 inh	PINK1 expr mod	D2 ag
O=C(N/N=C/C=C/c1ccccc1)NC1CCCCC1	5.9	-5	-17	-13	4.0%	-3.5
O=C(Nc1ccccc1C(=O)N1CCOCC1)C1CC(=O)N(c2ccc(F)cc2)C1 (stereo not given)	0.1	-9	7	-5	0.0%	-2.9
N=c1oc2ccccc2cc1-c1nc(-c2ccc(Cl)cc2)cs1	0.5	15	-6	21	?	-0.1
COc1ccc(OC)c(-n2c(=O)c3ccccc3c3ccccc3c2=O)c1	1.7	-11	-2	-14	2.1%	-6.0
COCCCNC(=O)c1ccc(N(C)S(=O)(=O)c2ccc(OC)cc2)cc1	-0.2	-3	-2	10	0.4%	-1.6
CC(C)c1ccc[n+](-c2nc([O-])sc2C=O)c1	0.3	-4	-4	5	0.5%	-2.3
O=C(Cc1ccccc1Cl)Nc1cccc(S(=O)(=O)N2CCCCCC2)c1	1.1	1	5	1	1.1%	0.6
COC(=O)c1cn(C)c2ccc(S(=O)(=O)N3CCCC3)cc2c1=O	0.6	-13	3	-4	1.9%[38.3 µM]	-1.5
C/C(=N\NC(=O)c1ccccc1F)c1ccccn1	-0.6	-10	-98*	-92*	-0.4%	-6.8
Cn1c(C(=O)N2CCCC(Nc3ccc(F)cc3)C2)cc2ccccc21 (stereo not given)	-0.9	-6	-16	-11	0.2%	-3.5
CCC(=O)Nc1ccc(C(=O)COC(=O)Cc2ccsc2)cc1	-0.5	-3	7	-4	-2.2%	-5.6
COCCNC(=O)/C(C#N)=C/c1cccc(NC(=O)c2ccccc2Cl)c1	0.0	-1	-11	2	12%	-1.0
Cc1cc(Nc2ccccc2N2CCOCC2)n2ncnc2n1	0.3	-15	-8	0	7.3%	-3.5
Cn1c2ccccc2c2nnc(SCCN3CCOCC3)nc21	·	-5	-12	-5	2.7%	-1.1
O=C1c2cccc(Cl)c2C(=O)N1c1ccccn1	0.1	-2	0	28	0.3%	-3.3
Cc1nn(-c2cc(N3CCCCC3)ccc2[N+](=O)[O-])c(=O)c2ccccc12	1.0	-8	-18	-18	5.3%[38.3 µM]	-4.4
CCN(C(=O)c1coc(=O)c(Br)c1)c1ccc2c(c1)OCO2	0.4	8	-9	-10	?	5.4
O=C(CSc1nnc(NC(=O)c2cccc(Br)c2)s1)NCC1CCCO1 (stereo not given)	-0.6	-21	-2	11	0.2%	-2.1
COc1ccc(C(=O)N=C2SC3CS(=O)(=O)CC3N2c2ccc(N(C)C)cc2)cc1OC (stereo not given)	1.0	-3	·	21	5.9%	-0.9
COc1ccccc1C(=O)NCC(=O)OC(C)C(=O)N1CCOCC1 (stereo not given)	0.1	-4	5	8	-0.2%	3.1
COc1ccccc1-c1csc(C(O)(c2ccccc2)C(F)(F)F)n1 (stereo not given)	-0.2	-13	16	1	5.3%	-4.8
CCOC(=O)c1ccccc1OC(=O)NNc1ccccc1	-1.0	-14	4	6	10%	-5.9
O=C1CCCN1CCC(=O)N1CCCC(N2CCN(c3ccccc3F)CC2)C1 (stereo not given)	-0.4	-23	18	3	7.7%	-4.9
NC(=O)CSc1nnc(COc2cccc3ccccc23)o1	-0.4	0	·	2	0.7%	1.7
CCCCCC(=O)N1C[C@H](O)[C@@H](n2cc(C3CC3)nn2)C[C@@H]1c1ccc(C)cc1	-0.5	-3	-1	-1	-1.0%	-0.4
COC(=O)C1=C(N)Oc2cc(C)n(Cc3cccnc3)c(=O)c2C1c1ccc(OC)c(OC)c1 (stereo not given)	-0.3	15	1	-6	-3.0%	6.9
Cc1ccccc1-n1c(C)nnc1SCC(=O)NC1CCCc2ccccc21 (stereo not given)	-0.1	7	2	1	0.9%	-2.3
O=C(C1CCN(Cc2ccc(Cl)cc2)CC1)N1CCN(Cc2ccc3c(c2)OCO3)CC1	0.5	-30	0	-6	-2.2%	-3.5
CC(C)COC(=O)CCn1[nH]c(=O)c2ccccc2c1=O	0.6	-4	9	4	6.6%	-1.7
CCOc1ccc(S(=O)(=O)NCCC(=O)N(C)Cc2ccc(C)o2)cc1	2.3	13	-4	-1	3.2%	4.8
COc1ccc(OC)c(C(c2nnnn2CCC(C)C)N2CCN(C(=O)c3ccco3)CC2)c1 (stereo not given)	1.2	-13	-2	-1	1.0%	-0.5
COc1ccc(CNC(=O)Cn2nc([N+](=O)[O-])c(Br)c2C)cc1OC	-0.1	2	-3	-2	-1.5%	3.6
COc1ccccc1NC(=O)C(CC=C(Cl)Cl)C(C)=O (stereo not given)	6.3	-21	2	5	0.8%	0.4
COc1cc(CNC(C)(C)CO)cc(Br)c1OCc1ccccc1	0.8	-5	2	0	0.8%	-3.1
Cc1cc([N+](=O)[O-])ccc1-c1ccc(/C=N/NC(=O)Cc2ccccc2)o1	0.6	-7	5	1	7.0%	1.9
COc1ccc(OC)c(C2N(c3cc(C)on3)C(=O)C3CCCN32)c1 (stereo not given)	-0.5	-11	-8	4	3.8%	-2.0
COC(=O)CC1(c2ccccc2)C(=O)c2ccccc2C1=O	1.6	-4	2	5	0.4%[38.3 µM]	-2.2
O=C(Nc1ccc(Cl)c(Cl)c1)OCc1cncs1	0.8	-11	5	-1	20%	-14
CCOC(=O)/C=C1\SCC(=O)N1CC(=O)NC12CC3CC(CC(C3)C1)C2	-1.0	-3	-1	-1	0.2%	-2.1
O=C(CNC(=O)c1ccc(S(=O)(=O)N2CCCC2)cc1)N/N=C/c1ccc(F)cc1	0.7	-7	·	4	2.6%	2.8
COc1ccc(C(=O)Nc2ccc(N3CCN(C(=O)c4cccs4)CC3)cc2)cc1Br	0.5	-11	·	-16	-0.6%	1.8
O=C(CCN1C(=O)c2ccc([N+](=O)[O-])cc2C1=O)Nc1ccccc1C(=O)O	0.2	?	-8	5	-1.1%	9.0
Cc1cc(OC(C)C(=O)N(Cc2ccco2)C2CCS(=O)(=O)C2)ccc1Cl (stereo not given)	-0.4	-7	0	-9	-0.2%	0.4
COc1cc(CN(C)CCc2ccccn2)cc(OC)c1OC	0.1	-17	5	6	2.1%	1.9
Cc1cc(C)c(S(N)(=O)=O)c(C)c1N(C)S(=O)(=O)c1ccccc1	3.9	2	6	5	-1.0%	11
O=[N+]([O-])c1c(Nc2ccccc2)ccc2nonc12	3.3	24	-7	-5	-2.9%	2.6
Cc1c(NC(=O)CSCc2ccc(Br)cc2)c(=O)n(-c2ccccc2)n1C	0.1	-5	-3	4	-0.5%	-3.8
O=C(/C=C/c1cccc([N+](=O)[O-])c1)NC(=S)Nc1cccc(NC(=O)c2ccccc2Cl)c1	1.4	10	9	3	-0.9%	-0.6
Cc1nc2ccc(NC(=O)CS(=O)(=O)c3ccccc3)cc2s1	-0.6	-5	-3	-5	1.2%	-4.1
N#Cc1ccccc1CSc1ncccc1C(=O)O	-0.3	16	3	10	4.4%	0.9
COc1ccc(N2CCN(C(=O)c3ccc(C(C)(C)C)cc3)CC2)cc1	0.7	-6	-21	-23	4.6%	-2.0
CC(=O)N1CCN(C2c3cccc4cccc(c34)C2NS(=O)(=O)c2ccccc2)CC1 (stereo not given)	-0.1	-7	-6&-1	-2	-1.8%	-3.7
O=C(CSc1nnnn1-c1cccnc1)Nc1ccc(OCc2ccccc2)cc1	1.1	9	-11	-9	·	-1.4
C=CCN1C(=O)/C(=C/c2ccc(-c3ccc(F)cc3)o2)SC1=S	0.7	2	-8	6	0.7%	-1.6
COc1ccc(NC(=S)NNC(=O)Cn2nc([N+](=O)[O-])cc2C)cc1	0.3	-3	1	0	5.5%[38.3 µM]	-0.4
CCNc1nc(Oc2ccc(F)cc2)cc(C(F)(F)F)n1	1.1	-2	·	22	11%	3.1
COc1cc(Br)c(CN2C(=O)NC3(CCCCCC3)C2=O)cc1OC	-1.2	-24	-9	-11	1.5%	-2.5
CC(=O)c1cccc(NC(=O)C2Cc3c(-c4ccc(Cl)cc4)ccnc3O2)c1 (stereo not given)	0.1	-1	-16	-4	3.9%	4.0
CCOC(=O)C1(Cc2ccccc2)CCN(Cc2cnn(-c3ccccc3)c2)CC1	1.0	-17	-1	-12	13%	-5.1
CNC(=O)NC(=O)C(OC(=O)CCNS(=O)(=O)c1ccccc1)c1ccccc1 (stereo not given)	1.0	2	-8	-14	1.8%	-3.7

Next entries follow:
SMILES	TRPML1 agonist	D2 PAM	CtBP-E1A blk	Six1-Eya2 inh	PINK1 expr mod	D2 ag
CCOC(=O)N1CCN(C(=O)C2CCN(S(=O)(=O)c3ccc(OCC)cc3)CC2)CC1	1.6	-13	3	0	-0.2%	-6.6
Cc1ccc(S(=O)(=O)N(C)CC(=O)NC2CC(C)(C)NC(C)(C)C2)cc1	3.5	-5	-4	4	-3.5%	-0.4
NC(=O)C1(NC2CCCCC2)CCN(Cc2ccccc2)CC1	0.9	-24	-22	-3	0.0%	-5.6
O=C(C1CCCN(S(=O)(=O)c2cc(Cl)ccc2Cl)C1)N1CCOCC1 (stereo not given)	0.8	0	-1	5	1.7%	5.5
COCCOC(=O)C1=C(C)NC2=C(C(=O)CC(C)(C)C2)C1c1cccnc1 (stereo not given)	0.1	-5	7	12	2.2%	3.4
CCc1ccc(NC(=O)C2CCN(S(=O)(=O)c3c(C)[nH]c(=O)[nH]c3=O)CC2)cc1	0.3	-8	5	2	-3.9%[38.3 µM]	-0.6

Grouped by structure: the entries above containing a Cl atom (eleven)
SMILES	TRPML1 agonist	D2 PAM	CtBP-E1A blk	Six1-Eya2 inh	PINK1 expr mod	D2 ag
N=c1oc2ccccc2cc1-c1nc(-c2ccc(Cl)cc2)cs1	0.5	15	-6	21	?	-0.1
O=C(Cc1ccccc1Cl)Nc1cccc(S(=O)(=O)N2CCCCCC2)c1	1.1	1	5	1	1.1%	0.6
COCCNC(=O)/C(C#N)=C/c1cccc(NC(=O)c2ccccc2Cl)c1	0.0	-1	-11	2	12%	-1.0
O=C1c2cccc(Cl)c2C(=O)N1c1ccccn1	0.1	-2	0	28	0.3%	-3.3
O=C(C1CCN(Cc2ccc(Cl)cc2)CC1)N1CCN(Cc2ccc3c(c2)OCO3)CC1	0.5	-30	0	-6	-2.2%	-3.5
COc1ccccc1NC(=O)C(CC=C(Cl)Cl)C(C)=O (stereo not given)	6.3	-21	2	5	0.8%	0.4
O=C(Nc1ccc(Cl)c(Cl)c1)OCc1cncs1	0.8	-11	5	-1	20%	-14
Cc1cc(OC(C)C(=O)N(Cc2ccco2)C2CCS(=O)(=O)C2)ccc1Cl (stereo not given)	-0.4	-7	0	-9	-0.2%	0.4
O=C(/C=C/c1cccc([N+](=O)[O-])c1)NC(=S)Nc1cccc(NC(=O)c2ccccc2Cl)c1	1.4	10	9	3	-0.9%	-0.6
CC(=O)c1cccc(NC(=O)C2Cc3c(-c4ccc(Cl)cc4)ccnc3O2)c1 (stereo not given)	0.1	-1	-16	-4	3.9%	4.0
O=C(C1CCCN(S(=O)(=O)c2cc(Cl)ccc2Cl)C1)N1CCOCC1 (stereo not given)	0.8	0	-1	5	1.7%	5.5

From PubChem BioAssay
